# Bioassay records deposited in PubChem BioAssay by Broad Institute.
# Tg IFNy HTS = blocks Toxoplasma gondii growth in the presence of IFN-gamma. Toxoplasma gondii growth in IFN-gamma-treated host cells; stronger effect = lower value; reference of the scale not given here. activity change, negative = inhibition, %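 (about 20 µM by stock and volumes)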. hit rate 3.8% among 69,000;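 active means below -70%; inconclusive means fit judged invalid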;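 further: host cells are HeLa cells infected with Toxoplasma gondii; parasite growth read as luciferase light; one replicate is shown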
# The depositor's hits bear a star; ? = inconclusive. An excerpt; the hit share may differ from the screen's.
SMILES | Tg IFNy HTS
Cn1c(=O)c2c(ncn2Cc2ccccc2Cl)n(C)c1=O | -1.2
CCc1ccc2c(c1)cc(S(=O)(=O)c1ccccc1)c(=O)n2CC(=O)NCCCOC | 0.7
COc1ccc2c(c1)NC1(CCN(C(=O)Cc3ccc(C)cc3)CC1)c1cccn1-2 | 11.7
CCc1nccc(CN2CCCOc3c(cccc3OC)C2)n1 | 3.5
CCCNC(=O)N1C[C@H](O)COC[C@@H]2O[C@H](CC(=O)OC)CC[C@H]21 | -2.4
CC(C)(C)C(=O)CN1CCC2(CC1)NC(=O)c1ccccc1N2 | 36.2
CCn1ncc(C(=O)NCC(C)Cn2nc(C)cc2C(F)(F)F)c1C (stereo unspecified) | 0.3
C[C@@H]1CCc2cnnn2COC[C@@H](c2ccccc2)NC1=O | 1.7
Cc1cc(NC(=O)COC(=O)C(CC(C)C)NC(=O)c2ccccc2)no1 (stereo unspecified) | 9.1
CCCNC(=O)N1CC2(C1)[C@@H](c1ccccc1)[C@@H](CO)N2C(=O)CC1CC1 | 13.3
CN1C(=O)c2cc(NC(=O)c3cccc(F)c3)ccc2OC[C@H]2O[C@H](CC(=O)NCc3ccccc3Cl)CC[C@H]21 | -13.3
COc1ccc(C2(NCc3c(N4CCCC4)nc4ccccn4c3=O)CCCC2)cc1 | 59.5
COCCN1C2COCC1CN(Cc1cccc(F)c1)C2 | 4.5
O=C(CN1CCOCC1)N1CCCCN2[C@@H](CO)[C@@H](c3ccc(Br)cc3)[C@@H]2C1 | 19.7
Cc1cc(C(=O)N2CCc3c([nH]c4ccccc34)C2C)c(CN2CCCC2)o1 (stereo unspecified) | -14.8

# Given as labelled records: two of the compounds above
COc1ccc2c(c1)NC1(CCN(C(=O)Cc3ccc(C)cc3)CC1)c1cccn1-2
  Tg IFNy HTS = 11.7
CCc1nccc(CN2CCCOc3c(cccc3OC)C2)n1
  Tg IFNy HTS = 3.5

# More results:
SMILES | Tg IFNy HTS
O=C(NCCn1ncc2ccccc2c1=O)c1cccc2c1NCCC2 | -19.9
COCC(=O)Nc1ccc2c(c1)C(=O)N(C)C[C@H](OC)[C@H](C)CN(CCc1ccccc1)[C@H](C)CO2 | -38.1
CN1C(=O)c2cc(NS(C)(=O)=O)ccc2OC[C@@H]2O[C@@H](CC(=O)NCc3ccccc3)CC[C@@H]21 | 17.8
COCC1(NC(=O)c2cnc(C(C)C)[nH]c2=O)CCCC1 | 0.5
Cc1ccc(CN2CC[C@@H](O)[C@@H]2Cc2cnn(C)c2)s1 | 30.2
CC(C)(C)C(=O)Nc1cc(C(F)(F)F)ccc1N1CCC(C(F)(F)F)CC1 | -97.1*
CCCC(NC(=O)Cc1c(C)oc2c1C(=O)CC(C)(C)C2)c1cccs1 (stereo unspecified) | 10.0
COc1ccc(NC(=O)N(C)C[C@H]2OCc3ccccc3-c3ccccc3C(=O)N([C@@H](C)CO)C[C@H]2C)c(OC)c1 | 43.8
Cc1oc(-c2ccccc2)cc1-c1ccn[nH]1 | -7.3
C=CCn1c(=O)c(-c2nc(-c3ccc(OC)cc3)no2)c(O)c2ccccc21 | 11.5
CCOc1ccc(C(=O)/C=C/c2cc(OC)c(OC)c(OC)c2)cc1 | -45.6
O=C(c1ccoc1)N1CCC2(CCC2NS(=O)(=O)c2ccccc2)CC1 (stereo unspecified) | -28.8
O=C(Nc1ccc(OCc2ccccc2)cc1)Nc1ccc(N2CCCCC2)cc1 | 13.7
CN1C[C@H]2[C@@H](c3ccccc31)[C@@H](CO)N2Cc1ccccc1Cl | -0.3
CCOc1ccc(-c2nc(Cn3c(=O)c4c(C)cc(C)nc4n(-c4ccccc4)c3=O)c(C)o2)cc1 | -16.4

# More records follow.
SMILES | Tg IFNy HTS
c1ccc(-c2ncn(CC3CCCO3)c2-c2cccn2-c2ncccn2)cc1 (stereo unspecified) | ?
COc1ccc(C(C)NC(=O)c2csc(C(C)C)c2)cc1OC (stereo unspecified) | 3.2
C[C@]12CC[C@@H]3c4ccc(OS(=O)(=O)O)cc4CC[C@H]3[C@@H]1CCC2=O | 1.3
CC(C)NC(=O)[C@H]1C[C@@H]2OCC[C@@H]2N(Cc2ccc3ccccc3n2)C1 | 4.8
O=C(Cn1c(=O)cc(C(=O)N2CCOCC2)c2ccccc21)Nc1ccc2c(c1)OCO2 | 3.9
CCn1nc(C)cc1C(=O)N1CC[C@H](OC)[C@@H]2CN(CC3CC3)C[C@@H]21 | -2.4
CCC(CO)N(Cc1ccco1)C(=O)c1cccn1C (stereo unspecified) | -1.5
CCc1noc(C(C)n2ccnc2-c2cnc(-c3ccco3)nc2)n1 (stereo unspecified) | -5.8
Cc1noc(C)c1C(=O)N1CCn2nc(C(=O)N3CCN(C)CC3)cc2C1 | 2.5
c1ccc2sc(CCc3nc4ccccc4s3)nc2c1 | 324.3
CN(Cc1cc(-c2ccncc2)no1)Cc1ccc(Cl)cc1F | -89.7*
COc1ccc(-c2nc3ccccc3n3cc4c(=O)n(C)c(=O)n(C)c4c23)cc1OC | 6.8
Cc1ccc(Sc2ncnc3ccsc23)cc1 | 46.0
COc1ccccc1N1CCN([C@H]2CN(C(=O)c3ccncc3)C[C@@H]2O)CC1 | 0.3
Cn1cccc1C(=O)N1CCC2(CCC(OCCO)c3ccccc32)CC1 (stereo unspecified) | -4.4

# Following part
SMILES | Tg IFNy HTS
Cc1nc(C)c(-c2ccnc(C34CC5CC(CC(C5)C3)C4)n2)o1 | -25.1
O=C(Cc1cccnc1)N1CC(=O)N2[C@H](CO)[C@@H](c3ccc(C#CC4CCCCC4)cc3)[C@@H]2C1 | -55.7
COc1ccc2c3c(n(C)c2c1)[C@@H](CO)N(C(=O)c1ccc(F)cc1)CC31CCN(C)CC1 | 100.5
Cc1cc(C)n(C(C)C(=O)N2CCc3c(ncnc3N3CCOCC3)C2)n1 (stereo unspecified) | 4.5
Cc1onc(-c2c(Cl)cccc2Cl)c1C(=O)Oc1noc2ccccc12 | 3.7
O=C(NC1CCCC1)c1nc2c(o1)CN(C(=O)CCO)C2 | -3.0
Cc1ccc(Cl)cc1NC(=O)COc1ccccc1Br | -83.1*
CCN1CCN(CCCNC(=O)C2=C(C)C(=O)OC23CCN(C(C)=O)CC3)CC1 | 56.8
O=S(=O)(CC(O)COc1ccc(Br)cc1)c1ccc(Cl)cc1 (stereo unspecified) | -16.2
Nc1cc(-c2csc(-c3cccnc3)n2)nn1-c1ccc(Cl)cc1 | 13.0
O=C(CCC1N=C2c3ccccc3N=C(SCc3ccc(F)cc3)N2C1=O)NCc1ccccc1 (stereo unspecified) | -34.8
Cc1cnc(C(=O)N2CCC3(CC2)CCN(CC2CC2)C3=O)cn1 | -52.0
O=C(NC[C@H]1N[C@H](CO)[C@H]1c1ccc(-c2ccccc2F)cc1)c1ccccn1 | -29.7
CC(=O)c1c(C)nn(CCC(=O)N2CCC(c3ccccc3C(=O)O)C2)c1C (stereo unspecified) | 2.5
COc1ccc(-n2c(-c3cccc(OC)c3)csc2=NCc2cccnc2)cc1 | -66.1

# (more compounds)
SMILES | Tg IFNy HTS
O=C1CC(c2ccccc2)C2(CCN(Cc3cccs3)CC2)N1 (stereo unspecified) | -3.0
COCCn1nnnc1C(c1ccc(C(F)(F)F)cc1)N1CCOCC1 (stereo unspecified) | 83.5
Cc1[nH]cnc1-c1n[nH]c(=O)n1Cc1cccs1 | 9.3
Nc1nnc(CCN2C(=O)CSC2=O)s1 | -8.7
Cc1ccc2oc(C(=O)NCc3cc(=O)[nH]c(-c4ccncc4)n3)cc2c1 | 35.7
COc1ccccc1CCn1cc(C#N)c(=O)[nH]c1=O | 51.6
CNC(=S)Sc1ccc(F)cc1F | 37.9
Cc1c(Cl)cc(F)cc1S(=O)(=O)N1CC=C(c2ccccc2)CC1 | -39.0
O=C(CC1C(=O)NCCN1C(=O)Nc1ccc(F)cc1)Nc1cc(Cl)ccc1Cl (stereo unspecified) | 5.5
Cc1oc(-c2cccc(Cl)c2)nc1CN1CCN(CC2CCCO2)CC1 (stereo unspecified) | -11.6
OCC1(CCc2ccccc2)CCCN(c2ncccn2)C1 (stereo unspecified) | 27.3
CCOC(=O)CSc1nc(-c2cccnc2)nn1C(=O)c1ccccc1 | -26.5
CC(C)OC(=O)c1cc(=O)[nH]c2ccccc12 | -60.6
O=C(C1CC2CN(Cc3ccc(Cl)cc3)CC1O2)N1CCOCC1 (stereo unspecified) | -19.3
COc1ccccc1-c1cc2c(=O)n(Cc3nc(-c4cccc(Cl)c4)oc3C)ccn2n1 | 123.5

# New compounds follow:
SMILES | Tg IFNy HTS
COc1ccc(C(=O)N2CCCC3(C2)Nc2cccnc2NC3=NC2CCCC2)cn1 (stereo unspecified) | -30.6
O=C(O)c1cc(-n2cc(CCO)cn2)ccc1F | -0.2
COCCCNC(=O)c1nc(Nc2ccc(F)cc2)c2ccccc2n1 | -29.0
Cc1noc(C)c1NC(=O)Nc1cccc2c1O[C@H](CN(C)Cc1ccc(C(=O)Nc3ccccc3N)cc1)[C@H](C)CN([C@H](C)CO)C2=O | 3.9
Cc1ccccc1CNc1ccnc(C(=O)NCCN2CCOCC2)c1 | -5.6
Cn1ccnc1CN1CC[C@@](C)(O)[C@@H](Cc2ccccc2)C1 | 3.4
COCC1c2nnn(CC3CC3)c2CCN1Cc1cnn(C)c1 (stereo unspecified) | 3.7
CC1(C)S[C@H](CNC(=O)Cc2ccccc2)N[C@H]1C(=O)O | 6.5
O=C(O)CCc1nc2cc3c(cc2[nH]1)OCCO3 | 33.1
O=C(NCC1(Cn2cccn2)CC1)c1ncc[nH]1 | 3.6
C#CCN(Cc1ccco1)Cc1nc(-c2ccc(C(F)(F)F)cc2)oc1C | -12.2
CC1CCC2(CC1)Nc1ccccc1S2 (stereo unspecified) | 7.7
CO[C@@H]1CN(C)C(=O)c2cc(NS(=O)(=O)c3cccc(Cl)c3)ccc2OC[C@H](C)NC[C@@H]1C | -32.1
CCOc1ccc(C(=O)NCCc2sc(-c3ccc(OC)c(OC)c3)nc2C)cc1 | 413.0
CN(C)C(=O)c1ccc(-c2ccc([C@@H]3[C@H]4CN(C(=O)CC5CC5)CC(=O)N4[C@H]3CO)cc2)cc1 | 23.7

# In another format: entries from further up
O=C(NCC1(Cn2cccn2)CC1)c1ncc[nH]1
- Tg IFNy HTS = 3.6
C#CCN(Cc1ccco1)Cc1nc(-c2ccc(C(F)(F)F)cc2)oc1C
- Tg IFNy HTS = -12.2
CC1CCC2(CC1)Nc1ccccc1S2 (stereo unspecified)
- Tg IFNy HTS = 7.7

# (next part)
SMILES | Tg IFNy HTS
Cn1cnc(S(=O)(=O)N2CCC3(CC(Nc4ccccc4)CO3)C2)c1 (stereo unspecified) | 4.4
CC(=O)N1CCC(c2cncc(Cl)n2)CC1 | -3.7
O=c1[nH]nc(CCNc2ccccc2)n1C1CCCC1 | 10.0
CCn1nc(C)c(Br)c1C(=O)Sc1ccc(C(F)(F)F)cc1 | -13.0
CSc1ccccc1NC(=O)Cn1nc(C(F)(F)F)c(Br)c1C | -3.6
COc1ccc(-c2nc(CCNC(=O)CC3CCCC3)cs2)cc1OC | 58.0
Cc1occc1C(=O)N1C[C@H](Oc2ccccn2)[C@@H]2OCCC[C@@H]21 | -5.1
Cc1cc(C)n(CC(C)NCc2noc(C3CCCC3)n2)n1 (stereo unspecified) | 3.6
Cc1cn2cc(CNC(=O)CC3NC(=O)c4ccccc43)nc2s1 (stereo unspecified) | 5.2
Cc1noc(C)c1C(=O)N(C)C[C@H]1OCc2ccccc2-c2ccccc2C(=O)N([C@@H](C)CO)C[C@H]1C | 42.0
CCn1ncc(S(=O)(=O)N2CCC(O)(c3ccc(C)cn3)CC2)c1C | 9.2
S=c1sc2ccccc2n1CCn1c(=S)sc2ccccc21 | 23.4
O=C1CC2C(CCN2C(=O)c2cccc(Cl)c2)N1CC1CC1 (stereo unspecified) | -7.3
COc1cccnc1C(=O)N1CCOC(c2ccc(Cl)c(Cl)c2)C1 (stereo unspecified) | -6.2
COc1ccc2c3c([nH]c2c1)[C@@H](CO)N(C(=O)CC1CC1)CC31CCN(Cc2ccncc2)CC1 | -35.3

# Individual results from above:
# `Cc1cc(C)n(CC(C)NCc2noc(C3CCCC3)n2)n1` (stereo unspecified) in Tg IFNy HTS reads 3.6
# `CCn1nc(C)c(Br)c1C(=O)Sc1ccc(C(F)(F)F)cc1` in Tg IFNy HTS reads -13.0
# `CSc1ccccc1NC(=O)Cn1nc(C(F)(F)F)c(Br)c1C` in Tg IFNy HTS reads -3.6
# `COc1ccc(-c2nc(CCNC(=O)CC3CCCC3)cs2)cc1OC` in Tg IFNy HTS reads 58.0
# `COc1ccc2c3c([nH]c2c1)[C@@H](CO)N(C(=O)CC1CC1)CC31CCN(Cc2ccncc2)CC1` in Tg IFNy HTS reads -35.3

# The listing continues:
SMILES | Tg IFNy HTS
CCn1c(C2CCCNC2)nn(Cc2ncccn2)c1=O (stereo unspecified) | 4.7
Cc1cc(N2CCC3(CCNC(=O)CC3)CC2)nc(-c2ccccc2O)n1 | -65.1
COc1cc2c(cc1-c1nccn1CC1CCCOC1)OCO2 (stereo unspecified) | 114.9
Nc1nc(N)c(Br)c(=O)[nH]1 | -32.8
COc1ccc(-c2nc(Cn3ccn4nc(-c5ccc(C)cc5)cc4c3=O)c(C)o2)cc1 | -39.0
Cc1ccc(N2CC(C(=O)NCCS(=O)(=O)c3ccc(F)cc3)CC2=O)c(C)c1 (stereo unspecified) | -34.7
Cc1cccc(C)c1NS(=O)(=O)c1ccc(F)cc1 | -8.5
Clc1ccc(CNc2nc(SCc3ccc(Cl)cc3)nc3ccccc23)cc1 | -48.1
Cc1cccn2cc(CNC(=O)c3cn(CC4CCCNC4)nn3)nc12 (stereo unspecified) | -8.0
O=C(NC1CC2(CCN(CCO)CC2)Oc2ccccc21)c1ccc[nH]1 (stereo unspecified) | 8.4
CCCCNC(=O)CC1N=C2c3ccccc3N=C(SCc3ccc(F)cc3)N2C1=O (stereo unspecified) | -12.1
CCC(C)NC(=O)c1nc(Nc2cccc(C)c2)c2ccccc2n1 (stereo unspecified) | -50.5
Cc1ccc(O)c(C(CC(=O)NCc2ccco2)c2ccccc2)c1 (stereo unspecified) | 33.0
